Source: PubChem (several laboratories)
PABP FP inh = PABP-poly(A) binding inhibition; P11940; PABP-poly(A) RNA binding, fluorescence polarization; inhibition, % at 35 µM; actives 1% (n = 290,000); AID 2014;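 active = 50% or more with normal probe brightness, or confirmed in later tests; inconclusive = above 50% with abnormal brightness, or retests that disagree; inactive = below 50% or failed in later tests; about a fifth of its hits are not listed in these tables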;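 note: calls also rest on retests at 20 µM and on dose response follow-up; controls were probe without protein and protein plus probe with vehicle; some compounds called inactive have numbers as strong as hits; many hits fall short of the cut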
HIV Env fusion = HIV envelope-mediated fusion inhibition | HeLa-JRFL Env/CEM21 cell fusion, luciferase | inhibition, % at 12.3 µM | actives 1.1% (n = 360,000) | AID 651610;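 active = mean replicate inhibition score of at least 50 and every replicate individually at or above 50; inconclusive = only one of the two criteria met; inactive = mean below 50 and not all replicates reaching 50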;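 note: 0% = plate neutral controls and 100% = maraviroc near 300 nM; one replicate is shown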
eIF4H inh = inhibitors of RNA binding by human eIF4H; inhibition, % at 35 µM; actives 0.94% (n = 290,000); eIF4H fluorescence polarization binding assay;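 active = 50% or more with normal probe brightness, or confirmed in later tests; inconclusive = above 50% with abnormal brightness, or retests that disagree; inactive = below 50% or failed in later tests; about a fifth of its hits are not listed in these tables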;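 note: calls also rest on retests at 20 µM and on dose response follow-up; 0% = protein and probe with vehicle and 100% = probe without protein; strong numbers were not always called active; many hits fall short of the cut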
UUG fidelity = modulators of start codon recognition fidelity in yeast | S. cerevisiae UUG-firefly luciferase reporter, luminescence/redox ratio | activity score, % at 18.7 µM | actives 0.13% (n = 350,000) | AID 602363;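 active = replicate mean at a twofold rise or more, about +100% in these data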;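 note: firefly luciferase made from a UUG start codon reports start codon fidelity; reporter light over untreated wells divided by growth signal over untreated wells; some hits fall short of that in this replicate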
CSC inhib = cancer stem cell inhibition | cancer stem cell-like cells viability, luminescence | inhibition, % at 7.5 µM | actives 1.1% (n = 300,000);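 active = mean at 75% or more and at least half the replicates too; inconclusive = mean and replicates disagree; tested in HMLE shEcad cells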;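 note: 0% = median of negative and 100% = median of positive control wells; the first replicate is given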
MT1-MMP act inh = MT1-MMP (human) activation inhibition | P50281 | HT1080 RFP-PRO-GFP cells, GFP/RFP ratio fluorescence, overnight; percent of plate control window, DMSO zero | GFP/RFP ratio change, % at 20 µM | actives 0.061% (n = 360,000) | AID 651647;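 active = GFP/RFP ratio change of at least 30% with cell ATP level not reduced by more than half and red fluorescence within 50% of control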; note: strong numbers were not always called active
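Assay system: RFP-PRO-GFP reporter HT1080 cells; read-out basis: GFP/RFP fluorescence ratio; benchmarks: DMSO wells and RFP-L50D-GFP cells; doses: 20 µM single dose, 1% DMSO; schedule: overnight cell settling, then overnight compound exposure, 37 °C, 5% CO2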
Rce1 inh = blocks yeast Ras-converting enzyme. calls only. yeast membranes, quenched prenylated peptide cleavage fluorescence. actives 0.27% (n = 290,000). AID 2563;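 active = fall in fluorescence gain of 50% or more versus controls, with final raw signal at or below 3038400; inconclusive = same 50% fall but final raw signal above 3038400; inactive = fall in fluorescence gain under 50%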;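 note: plate controls were neutral control wells for no effect and wells lacking membranes for full effect; tested at 10 µM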
Target sequence (Q03530 whole entry, looked up): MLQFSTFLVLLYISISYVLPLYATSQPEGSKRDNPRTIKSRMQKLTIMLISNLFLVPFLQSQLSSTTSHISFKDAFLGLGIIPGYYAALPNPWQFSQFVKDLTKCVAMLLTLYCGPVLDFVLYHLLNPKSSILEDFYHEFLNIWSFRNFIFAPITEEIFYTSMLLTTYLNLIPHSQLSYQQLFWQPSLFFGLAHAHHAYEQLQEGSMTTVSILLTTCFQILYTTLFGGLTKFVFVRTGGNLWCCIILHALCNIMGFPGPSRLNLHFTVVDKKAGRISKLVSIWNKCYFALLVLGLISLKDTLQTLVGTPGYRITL
MT1-MMP act inh RFP = further read-out of MT1-MMP act inh, marked with its call; RFP signal change, %; measured here: RFP expression control read;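 0 = vehicle wells; hits needed this value within 50% of zero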
Numbers without * were called inactive; i = inactive; ? = inconclusive; · = not tested or not shown; + = active, no number. These rows are one share of the data, so the mix of outcomes need not match the whole.

SMILES | PABP FP inh | HIV Env fusion | eIF4H inh | UUG fidelity | CSC inhib | MT1-MMP act inh | MT1-MMP act inh RFP | Rce1 inh
Cc1nnc(-n2cnc3ccccc32)c2ccccc12 | 12 | -222 | -1 | -11 | 1 | -1 | 1 | ·
COc1cccc(N(C(C)=O)c2nc(C)cc(C)c2C#N)c1 | 5 | -24 | 1 | -22 | -12 | 5 | 5 | i
COc1ccccc1-c1ccc(SCC(=O)Nc2cc(C)on2)nn1 | 0 | 0 | -4 | · | -8 | 1 | 0 | i
COC(=O)c1cc2ccc(OC)c(OC)c2c(=O)s1 | 10 | · | -2 | 1 | 8 | -5 | -1 | i
O=C(C/C=N/OCc1c(Cl)cccc1Cl)c1ccccc1 | 10 | -83 | 6 | 2 | 17 | -4 | 0 | i
Nc1ncc(Br)cc1S(=O)(=O)Nc1ccccc1F | · | -3 | · | -12 | -6 | -3 | 2 | i
COc1cc(CC(CC(=O)O)CC(C)OCc2ccccc2)cc(OC)c1 (configuration not stated) | 1 | -1 | -6 | · | 10 | 1 | 3 | i
COCCCNCCCCOc1ccc(Br)cc1Cl | -13 | 4 | 12 | -5 | -3 | 5 | 7 | i
NC(N)=NS(=O)(=O)c1ccc(N/C=C/C(=O)c2ccc(Cl)c(Cl)c2)cc1 | -4 | -8 | 2 | -13 | 9 | 7 | -10 | i
C=C(C)CSC1=C(C#N)C(c2ccccc2Cl)CC(=O)N1 (configuration not stated) | -10 | -9 | -9 | 2 | · | 4 | 4 | i
Cc1nc(CNS(=O)(=O)c2ccc(F)cc2)cs1 | 0 | -9 | -13 | -18 | 13 | 0 | 4 | i
C=CCN(Cc1nc(-c2ccccc2)no1)C(=O)c1ccco1 | -5 | 3 | 5 | -18 | 1 | 3 | 2 | i
Cc1cc(C)n(-c2ccc(C(=O)OCc3nnc(-c4ccccc4)o3)cc2)n1 | 2 | · | 1 | -27 | 3 | 0 | 0 | i
CCC1CCCCN1Cc1ccc(CNC(=O)CCc2nnc3ccc(N4CCCCC4)nn23)o1 (configuration not stated) | 4 | -4 | 4 | -27 | -8 | -1 | 4 | i
CCC(C)C(=O)Nc1nnc(SCC(=O)Nc2ccc(F)cc2)s1 (configuration not stated) | -2 | -10 | -12 | · | 15 | 1 | -4 | i
O=C(/C(N=Nc1cccc([N+](=O)[O-])c1)=C(/O)c1ccc(Br)cc1)C(F)(F)F | 0 | · | -11 | -9 | 99* | -7 | -36 | i
CCc1ccc(-c2nc(CS(=O)CC(=O)NC3CC3)c(C)o2)cc1 (configuration not stated) | 10 | 0 | ? | 7 | -16 | -1 | 0 | i
CNC(=O)C1C2C=CC3(O2)C1C(=O)N(CCOC)C3C(=O)NCc1ccc(OC)cc1 (configuration not stated) | 8 | -27 | -6 | 18 | · | 2 | 3 | i
COc1ccc(OC)c(S(=O)(=O)Nc2cc3c4c(c2)C(C)C(=O)N4CCC3)c1 (configuration not stated) | · | -1 | · | -14 | -8 | 0 | 1 | i
CCC(C)Sc1nnc(NC(=O)C2CCN(C(=O)c3ccco3)CC2)s1 (configuration not stated) | 4 | 6 | 0 | · | · | 0 | 0 | i

Nothing new here: an excerpt of the list.
SMILES | PABP FP inh | HIV Env fusion | eIF4H inh | UUG fidelity | CSC inhib | MT1-MMP act inh | MT1-MMP act inh RFP | Rce1 inh
NC(N)=NS(=O)(=O)c1ccc(N/C=C/C(=O)c2ccc(Cl)c(Cl)c2)cc1 | -4 | -8 | 2 | -13 | 9 | 7 | -10 | i
C=C(C)CSC1=C(C#N)C(c2ccccc2Cl)CC(=O)N1 (configuration not stated) | -10 | -9 | -9 | 2 | · | 4 | 4 | i
Cc1nc(CNS(=O)(=O)c2ccc(F)cc2)cs1 | 0 | -9 | -13 | -18 | 13 | 0 | 4 | i
C=CCN(Cc1nc(-c2ccccc2)no1)C(=O)c1ccco1 | -5 | 3 | 5 | -18 | 1 | 3 | 2 | i
Cc1cc(C)n(-c2ccc(C(=O)OCc3nnc(-c4ccccc4)o3)cc2)n1 | 2 | · | 1 | -27 | 3 | 0 | 0 | i
CCC1CCCCN1Cc1ccc(CNC(=O)CCc2nnc3ccc(N4CCCCC4)nn23)o1 (configuration not stated) | 4 | -4 | 4 | -27 | -8 | -1 | 4 | i
CCC(C)C(=O)Nc1nnc(SCC(=O)Nc2ccc(F)cc2)s1 (configuration not stated) | -2 | -10 | -12 | · | 15 | 1 | -4 | i
O=C(/C(N=Nc1cccc([N+](=O)[O-])c1)=C(/O)c1ccc(Br)cc1)C(F)(F)F | 0 | · | -11 | -9 | 99* | -7 | -36 | i
CCc1ccc(-c2nc(CS(=O)CC(=O)NC3CC3)c(C)o2)cc1 (configuration not stated) | 10 | 0 | ? | 7 | -16 | -1 | 0 | i
CNC(=O)C1C2C=CC3(O2)C1C(=O)N(CCOC)C3C(=O)NCc1ccc(OC)cc1 (configuration not stated) | 8 | -27 | -6 | 18 | · | 2 | 3 | i
COc1ccc(OC)c(S(=O)(=O)Nc2cc3c4c(c2)C(C)C(=O)N4CCC3)c1 (configuration not stated) | · | -1 | · | -14 | -8 | 0 | 1 | i
CCC(C)Sc1nnc(NC(=O)C2CCN(C(=O)c3ccco3)CC2)s1 (configuration not stated) | 4 | 6 | 0 | · | · | 0 | 0 | i

The list continues:
SMILES | PABP FP inh | HIV Env fusion | eIF4H inh | UUG fidelity | CSC inhib | MT1-MMP act inh | MT1-MMP act inh RFP | Rce1 inh
Cc1ccc2nc(Cl)c(C3CC(c4cccs4)=NN3C(=O)CCC(=O)O)cc2c1 (configuration not stated) | 8 | 4 | -10 | · | -10 | 3 | 2 | i
Cc1cccc(C)c1OCC(=O)Nc1ccccc1N1CCCCC1 | 0 | 4 | -14 | -14 | 39 | -7 | -8 | i
C=CCOc1ccc(/C=N/NC(=O)CC(=O)NC2CCCCC2)cc1 | 4 | 11 | -4 | -18 | -7 | -1 | -1 | i
CCCc1n(CC(O)COC2CCCCC2)c2ccccc2[n+]1C (configuration not stated) | 72* | -8 | 4 | -16 | -4 | 0 | 2 | i
CC(C)(C)C(=O)N1CCC(O)(CS(=O)(=O)Cc2ccccc2)CC1 | 14 | -15 | -5 | -8 | -2 | -1 | 3 | i
CCCCSc1nnc(-c2cc3c(C(F)(F)F)nn(C)c3s2)n1C | -2 | · | -2 | -9 | -12 | 3 | 0 | i
Cc1ccc(Cc2c(-c3ccco3)nc3ccc(C)cn23)cc1 | · | -13 | · | -14 | · | 0 | -4 | ·
CC(/C=N\NC(=O)c1ccc(C)nc1)=C\c1ccccc1 | -7 | -7 | -4 | -7 | 26 | -1 | 0 | i
O=C(NN=C1c2ccccc2-c2ccccc21)c1ccccc1 | · | 5 | · | -16 | 22 | 2 | -1 | i
c1csc(C2=Nn3c(nnc3-c3ccncc3)SC2)c1 | 15 | · | -4 | -25 | · | -12 | -11 | i
O=C(CNC(=S)NC(=O)c1ccc(Cl)cc1)c1ccccc1 | 14 | · | -2 | · | -11 | 1 | 0 | i
CCc1ccc(CN2CCCC(CNC(=O)c3cc(OC)cc(OC)c3)C2)cc1 (configuration not stated) | 3 | 10 | -12 | 6 | 0 | 3 | 1 | i
Cc1csc(=Nc2ccccc2)n1C | -4 | -16 | -3 | -47 | -5 | 3 | 1 | i
Cc1ccc2[nH]c3c(=O)n(CC(=O)NCCCN4CCN(c5ccc(F)cc5)CC4)ncc3c2c1 | -3 | 3 | -9 | -7 | -16 | -1 | -2 | i
CC(=O)NC(c1ccccc1)c1nc(-c2cccc(C#N)c2)cs1 (configuration not stated) | · | 10 | · | -18 | · | 3 | 1 | ·
COc1cc2oc(=O)ccc2cc1[C@H](O)[C@@H](O)C(C)(C)O | · | -22 | · | -12 | -3 | 0 | 1 | ·
CCCCOC(=O)c1ccc(NC(=S)NC(=O)c2c(Cl)cnn2C)cc1 | 8 | · | -5 | -11 | -11 | 6 | -2 | i
CC(C)(C)n1cnc(C(N)=O)c1N | 3 | -2 | -11 | · | -19 | 3 | 2 | i
COc1cccc(N2CCN(C(=O)c3ccc(CSc4nc5ccncc5[nH]4)cc3)CC2)c1 | 11 | 30 | 0 | -14 | 7 | -3 | -19 | i
CN=C(C)c1c(O)c2ccccc2oc1=O | -11 | · | -2 | -19 | 7 | 0 | 4 | i
O=C(NCCc1ccc(Cl)cc1)c1cnccn1 | 6 | -1 | -9 | -6 | -12 | 2 | -2 | i
NS(=O)(=O)c1ccc(CNS(=O)(=O)c2cc(C(=O)O)ccc2Cl)cc1 | 12 | 8 | 3 | · | -3 | 1 | 4 | i
O=C(NCC1CCCO1)C1CCN(C(=O)c2ccc(Cl)cc2)CC1 (configuration not stated) | 1 | -11 | 7 | -7 | -23 | 1 | 6 | i
CCOC(=O)c1[nH]c2ccccc2c1NC(=O)C1CCCCC1 | 26 | · | -1 | · | 4 | -1 | 1 | i
O=c1c(OC2OC(CO)C(O)C(O)C2OC2OC(CO)C(O)C(O)C2O)c(-c2ccc(O)cc2)oc2cc(O)cc(O)c12 (configuration not stated) | 0 | · | 44 | -9 | -4 | 0 | 5 | ·
CCC(=O)c1ccc(OCC(=O)OCC(=O)N(C)CC(=O)Nc2ccc(F)cc2)cc1 | · | · | · | · | -6 | 0 | 1 | i
CCCN(c1ccc(OCC)cc1)S(=O)(=O)c1ccc2c(c1)CCN2C(=O)CCC(=O)O | -5 | 4 | -8 | -7 | -17 | 0 | -1 | i
Cc1ccc(CC(=O)Nc2cccc(S(=O)(=O)N3CCOCC3)c2)cc1 | 7 | 0 | 5 | -8 | 4 | 2 | 0 | i
CNC(=S)N1CCC(C(=O)c2ccc(Cl)cc2)CC1 | · | 2 | · | -18 | · | 3 | -2 | ·
COC(=O)c1ccc(NC(=O)C[n+]2ccccc2)cc1 | 7 | -18 | -5 | -9 | -5 | -1 | 2 | i
CCCn1c(O)c(N=NC(=O)CNC(=O)c2ccncc2)c2ccccc21 | 3 | -1 | 2 | -11 | -13 | 2 | 1 | i
COc1cc(C(=O)N2CCN(c3ncnc4sc(C)c(C)c34)CC2)cc(OC)c1OC | 2 | 82* | 0 | -6 | -4 | 3 | -20 | i
CC(NC(=O)c1ccccc1)C(=O)NC1=NCCS1 (configuration not stated) | -3 | -38 | 1 | -15 | -15 | 5 | 11 | i
O=C(OCCNC(=O)c1ccc2ccccc2n1)c1ccc(F)cc1 | 8 | 3 | -3 | -3 | -5 | 5 | 3 | i
NC(=O)C1CCN(CC(=O)Nc2ccccc2C(=O)NC2CC2)CC1 | · | · | · | -12 | -25 | -2 | 0 | ·
CC(=O)c1c(O)cc(O)c(C(C)=O)c1O | 21 | · | 13 | -16 | -3 | -1 | -27 | +
CC(=O)Oc1ccc(-c2cccc(C(=O)N(C)c3ccc(O)cc3)c2)cc1 | -11 | 4 | -3 | · | -5 | 1 | 2 | i
O=C(CCCSc1nnnn1-c1cccc2ccccc12)c1ccc(F)cc1 | -1 | · | -6 | -5 | 0 | 3 | -12 | i
Cc1c(Cc2ccccc2)sc(/N=C/c2c(O)ccc3ccccc23)c1C(N)=O | 2 | · | 36 | -7 | 98* | -72 | -11 | i
CCC(C)C(NC(=O)C1CCC(C)CC1)C(=O)NCc1ccccn1 (configuration not stated) | -6 | -28 | -8 | · | 1 | -1 | 1 | i
Cc1cc(C)c2c(CC(=O)N(CCC#N)Cc3cccnc3)coc2c1 | 6 | · | -6 | -10 | -1 | -4 | -8 | i
O=C(CN1CCC(C(=O)c2ccc(F)cc2)CC1)Nc1ccc(F)cc1 | -7 | ? | 3 | -16 | 1 | 7 | -4 | i
